# Source: PubChem (National Center for Advancing Translational Sciences (NCATS))
# D2 PAM: human D2 receptor positive allosteric modulation | P14416 | DiscoveRx D2 beta-arrestin cells, luminescence, 90 min; 100% = 57 uM dopamine signal | potentiation, % (concentration not given with the values) | 0.23% of 360,000 active; active = potentiation of 50% or more; inconclusive = 30% to 50%; inactive = 30% or less;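 also: compound concentration not given in the record; tested on top of an EC20 dose of dopamine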
#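 PathHunter beta-arrestin assay in DiscoveRx D2 cells. Compounds were added with an EC20 of dopamine (50 nM final) for 90 min at 37 deg C. Luminescence was read 1 h after detection reagent, with 57 uM dopamine as the EC100 control.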
# PINK1 expr mod: changes PINK1 expression; PINK1 immunofluorescence, high-content cytometry, 24 h; Potency, µM (doses to about 76.6 µM), for the others: at the top dose activation (PINK1 increase), actives largely listed as activators; 0.2% of 410,000 active; active = well fitted activation curve with a large enough effect; inconclusive = small, poorly fitted or top-dose-only effect; inactive = flat fitted curve, though single readings scatter; cell line not stated here;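 also: potency is read from the fitted curve at half-maximal effect; % of control where 0% means no effect; nearly all actives have a fitted effect of over 65% in size; a mitochondrial uncoupler was the plate control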
#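 PINK1 protein level read as immunofluorescence by microplate cytometer in a fixed, stained stable cell line after 24 h exposure to five compound concentrations, with CCCP as control.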
# TRPML1 blocker: human mucolipin-1 channel inhibition; AID 624415; activity change, negative = inhibition, % (concentration not given with the values); 0.02% of 390,000 active; TRPML1-inducible cells, Ca2+ dye fluorescence, FDSS; hits give low values; inhibition of EC80 agonist-evoked calcium signal; Q9GZU1; in the data active means activity change below about -50%; inconclusive means about -30% to -50%; inactive means above about -30%;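 also: stimulus is agonist 54-4 at its EC80 concentration; % is scaled to controls: 0 for no effect and ±100 for the full control effect; compound concentration not given in the record; the text of the record puts the active cut at -80%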
#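 Tet-induced TRPML1-DL cells loaded with Ca8 no-wash calcium dye were read kinetically on FDSS. Compound addition was followed by EC80 agonist 54-4 (4 uM final); inhibition was read over 110 s.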
# Six1-Eya2 blk: inhibitors of human Six1/Eya2 interaction; AID 651725; Q15475+O00167; activity change, % (no concentration beside the values); 0.56% of 360,000 active; AlphaScreen GST-Six1/His-Eya2 binding, biochemical; hits give low values; control for the full effect not named in the record; in the data active = activity change below about -65%; inconclusive = about -30% to -65%; inactive = above about -30%; also: % is scaled to controls: 0 for no effect and ±100 for the full control effect; compound concentration not given in the record
# Target sequence (O00167 whole entry, looked up): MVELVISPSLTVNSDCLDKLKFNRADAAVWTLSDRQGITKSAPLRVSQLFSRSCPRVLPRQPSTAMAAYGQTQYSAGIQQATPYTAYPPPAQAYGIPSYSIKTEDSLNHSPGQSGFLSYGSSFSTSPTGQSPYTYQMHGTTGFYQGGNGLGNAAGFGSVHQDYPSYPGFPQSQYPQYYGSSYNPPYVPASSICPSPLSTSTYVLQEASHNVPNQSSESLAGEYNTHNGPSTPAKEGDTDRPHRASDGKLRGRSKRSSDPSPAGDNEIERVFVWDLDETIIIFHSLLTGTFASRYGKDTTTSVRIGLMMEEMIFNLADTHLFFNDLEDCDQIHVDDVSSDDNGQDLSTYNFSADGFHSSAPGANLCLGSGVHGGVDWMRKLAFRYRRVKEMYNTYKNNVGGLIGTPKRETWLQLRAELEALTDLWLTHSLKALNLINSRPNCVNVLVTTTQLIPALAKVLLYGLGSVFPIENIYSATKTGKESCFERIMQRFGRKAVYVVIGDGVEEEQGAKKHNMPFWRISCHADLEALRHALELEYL
# Target sequence (Q15475 whole entry, looked up): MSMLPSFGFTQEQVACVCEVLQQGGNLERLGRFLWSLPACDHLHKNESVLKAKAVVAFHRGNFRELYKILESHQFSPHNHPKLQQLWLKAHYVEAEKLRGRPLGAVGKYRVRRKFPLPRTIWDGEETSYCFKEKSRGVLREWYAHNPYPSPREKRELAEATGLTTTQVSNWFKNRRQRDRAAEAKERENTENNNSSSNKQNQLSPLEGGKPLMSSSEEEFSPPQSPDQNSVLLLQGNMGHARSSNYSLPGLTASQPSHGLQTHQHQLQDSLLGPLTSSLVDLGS
#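 Compounds are tested against tagged Six1 and Eya2 proteins bridged by glutathione donor and nickel acceptor beads; after a one-hour incubation at 37 °C without light, AlphaScreen emission is recorded.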
# TRPML1 agonist: human mucolipin-1 channel agonism; Q9GZU1; TRPML1-expressing cells, Ca2+ dye fluorescence, FDSS; host cell line not named in the record; reference of the full effect not given here; activation, % (test concentration not listed); 0.12% of 410,000 active; AID 624414; in the data active = activation above about 50%; inconclusive = about 30% to 50%; inactive = below about 30%; also: 0% is about no effect; the text of the record puts the active cut at 80%
#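 Tetracycline-induced TRPML1-DL cells are seeded and incubated overnight before loading with a no-wash Ca2+ dye and quencher. Agonist activity is taken from the 110 s fluorescence read following compound pin-transfer on an FDSS, before EC80 54-4 challenge.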
# D2 agonist: agonists of human D2 dopamine receptor (beta-arrestin); P14416; DiscoveRx PathHunter D2 beta-arrestin, luminescence, 90 min; 100% = 57 uM dopamine signal; activation, % (no concentration beside the values); 0.084% of 360,000 active; in the data active = activation above about 40%; inconclusive = about 15% to 40%; inactive = below about 15%; also: compound concentration not given in the record; the text of the record calls up to 30% inactive
#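 Agonist mode: compounds alone added to overnight-plated D2 PathHunter cells for 90 min at 37 C, with 57 uM final dopamine (EC100) defining full response. Beta-arrestin recruitment detected by chemiluminescent reagent, read after 1 h at ambient temperature.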
# Active calls of the source: *; ? = inconclusive; . = no result given; & = joins results of further samples; [ ] = another dose, or the depositor's remark.
SMILES,D2 PAM,PINK1 expr mod,TRPML1 blocker,Six1-Eya2 blk,TRPML1 agonist,D2 agonist
COc1ccc(NC(=O)CN2CCC(C)CC2)c([N+](=O)[O-])c1,0,?,13,-24,1.1,0.5
O=C(Nc1ccc(Br)cc1)c1cc(-c2ccncc2)nc2ccccc12,-13,13%,-4,-13,-0.1,0.8
CCCCCCCC(=O)NN1CCOCC1,-17,-1.8%,-6,-3,-0.2,-5.6
O=C1CCCN1c1ccc(S(=O)(=O)Nc2ccc3c(c2)OCCO3)cc1,-6,.,-9,6,-0.4,1.6
Cc1oc2ccc(O)c(CN3CCOCC3)c2c1C(=O)Nc1cccc(C(F)(F)F)c1,.,-0.2%,17,.,0.0,.
O=C(Cc1ccc(F)cc1)N/N=C/c1ccncc1,-10,1.2%,7,-3,-0.2,-4.5
CN(CC(CC(=O)Nc1nncs1)c1ccccc1)S(=O)(=O)c1ccc(Br)cc1 (configuration not stated),-6,-3.5%,2,-9,3.3,-2.7
CCNC(=S)N(CCCN(CC)CC)Cc1cc2cc3c(cc2[nH]c1=O)OCO3,-4,1.0%,21,0,-0.1,-0.8
COC(=O)/C(C(C)=O)=C(/C=C/C=C/N(C)C)N(C)C,-6,.,-7,-1,0.8,-3.3
COC(=O)c1ccc(NC(=O)C(=O)NCCc2csc(-c3ccc(F)cc3)n2)cc1,.,1.5%,5,.,1.1,.
COC(=O)c1cc(C)nc2c1c(C)nn2-c1ccccc1,-4,0.2%,0,10,0.5,-2.7
CCN(CC)CCNC(=O)c1cn(CC)c2cc(N3CCN(C)CC3)c(F)cc2c1=O,-9,-1.4%,-13,-10,1.9,0.8
CCOc1ccccc1OCCCC(=O)Nc1ccc(S(=O)(=O)Nc2cc(C)nc(C)n2)cc1,1,1.4%,31,-5,-0.7,-2.2
Cc1c(CCC(=O)O)c(=O)oc2c(C)c3occ(-c4ccc(Br)cc4)c3cc12,-3,1.8%,6,-85*,-1.0,2.6
CCOc1ccc(-c2nc3ccccc3c(=O)o2)cc1,-6,4.9%&-0.2%,4&-3,15,0.2&0.0,-3.5
O=C(Nc1nc2ccc([N+](=O)[O-])cc2s1)c1ccncc1,6,3.3%,-7,-5,-0.3,1.0
COc1ccc(CNC(=O)CS(=O)Cc2nc(-c3cccc(C)c3)oc2C)cc1 (configuration not stated),.,-0.2%,-3,.,-0.9,.
COc1ccccc1CNS(=O)(=O)c1c(C)cc(C)cc1C,-2,1.4%,11,4,-0.4,-2.9
COc1ccc2c(c1)CCC1=C2NC(=S)NC1c1ccc(N(C)C)cc1 (configuration not stated),2,-0.3%,-9,-8,2.6,8.5
CCOC(CNC(=O)C(=O)NCC(c1ccco1)N1CCN(c2ccc(OC)cc2)CC1)OCC (configuration not stated),-5,-0.4%,-8,4,-0.9,-3.0
CCOc1ccc(CCNC(=O)COC(=O)c2ccc3c(c2)OCCO3)cc1OCC,-8,1.1%,-5,2,1.4,2.3
CC1(C)CC(=O)C=C(NCC(=O)O)C1,8,.,-7,-1,0.7,-1.0
CC(C(=O)Nc1ccc(S(=O)(=O)N2CCCC2)cc1)N(C)Cc1ccc(F)cc1 (configuration not stated),-2,-0.2%,27,-2,1.5,5.3
CSCC[C@H](NC(=O)[C@H]1N2C(=O)c3ccccc3C2SC1(C)C)C(=O)NCc1ccncc1 (some centres not stated),-9,-0.7%,-3,2,-0.5,-1.3
Cc1ccc(NC(=O)CN2C(=O)NC3(CCC(C)CC3)C2=O)c(Cl)c1 (configuration not stated),-5,3.7%[38.3 µM],31,0,-0.6,-2.0
O=[n+]1cc(-c2ccc(Br)cc2)n([O-])c2c1CCC2,?,1.9%,14,7,0.9,-1.2
CN(C)c1ccc(/C=C/c2nc3ccccc3s2)cc1,-3,45µM*,-5,?,13&1.6,-1.7
CC(C)C[C@@H]1COc2cccc(N3CCN(Cc4ccccc4F)CC3)c2S(=O)(=O)N1,.,0.4%,.,-15,0.8,.
COc1ccc(CN2C(=O)C3C4C=CC(C4)C3C2=O)cc1 (configuration not stated),-1,4.0%[38.3 µM],4,-1,0.0,-2.1
CC(=O)Nc1ccc(OC/C=C(\C)Cl)cc1,-15,-3.8%[38.3 µM],22,3,0.0,-2.0
Cc1cc(C)cc(C(=O)Nc2cc3c4c(c2)CC(=O)N4CCC3)c1,-39,5.2%,-7,-7,0.8,-7.0
CCN1C(=O)c2ccc(C(=O)Nc3nccs3)cc2C1=O,3,2.6%,9,-1,-0.2,-4.3
C[C@H]1CN([C@@H](C)CO)C(=O)c2cc(/C=C/c3ccccc3)cnc2O[C@H]1CN(C)C(=O)c1cccc(F)c1,2,0.4%,20,-2,-0.5,-12
CSc1ccc(C(=O)C2CCCN(C(=O)CCc3c(C)nn(C)c3C)C2)cc1 (configuration not stated),-6,-0.8%,11,1,0.4,3.5
CC1CCCCN1CCCNC(=O)CN1C(=O)c2cccnc2Oc2ccccc21 (configuration not stated),-15,-0.5%&0.4%,-8&4,6,-0.7&-0.2,-2.7
O=C(Nc1nccs1)c1ccc([N+](=O)[O-])cc1,9,-1.2%,5,-2,0.1,0.4
CCN(Cc1ccncc1)C(=O)CSc1ccc2ccccc2c1,-7,-0.6%,?,3,0.2,-1.1
Cc1cc(C)nc(N2CCN(C(=O)CCC(=O)Nc3nnc(C(C)C)s3)CC2)n1,-11,0.4%,-18,11,1.2,-2.3
COc1cc(NC(=O)c2ccccc2)cc(OC)c1,-19,-0.7%,-2,3,-0.4,-2.7
CCn1c(O)c(N=NC(=O)c2cccnc2)c2cc(Br)ccc21,-13,3.1%,22,5,-0.9,-5.0

# Four compounds out of the list above, sorted by the number in D2 PAM, low to high.
mol	D2 PAM	PINK1 expr mod	TRPML1 blocker	Six1-Eya2 blk	D2 agonist
CCn1c(O)c(N=NC(=O)c2cccnc2)c2cc(Br)ccc21	-13	3.1%	22	5	-5.0
CC(C(=O)Nc1ccc(S(=O)(=O)N2CCCC2)cc1)N(C)Cc1ccc(F)cc1 (configuration not stated)	-2	-0.2%	27	-2	5.3
COc1ccc(CN2C(=O)C3C4C=CC(C4)C3C2=O)cc1 (configuration not stated)	-1	4.0%[38.3 µM]	4	-1	-2.1
C[C@H]1CN([C@@H](C)CO)C(=O)c2cc(/C=C/c3ccccc3)cnc2O[C@H]1CN(C)C(=O)c1cccc(F)c1	2	0.4%	20	-2	-12

# Next entries:
SMILES,D2 PAM,PINK1 expr mod,TRPML1 blocker,Six1-Eya2 blk,TRPML1 agonist,D2 agonist
O=C(NCc1cccnc1)c1cccnc1Sc1ccc(Cl)cc1,-5,1.7%[38.3 µM],14,2,2.0,1.2
COc1ccc(N2CCN(C(=O)c3ccc(NS(=O)(=O)c4ccc(F)c(F)c4)cc3)CC2)cc1,-3,3.1%,0,-3,0.2,2.8
O=C(Cn1nc(-c2ccccc2F)ccc1=O)NCc1ccc2c(c1)OCO2,5,-0.9%[38.3 µM],-3,-2,1.4,-1.3
O=C(NC1CCN(Cc2ccccc2)C1)c1cc(COc2ccc(F)cc2F)on1 (configuration not stated),-1,2.2%,25,-5,0.7,1.1
COc1ccc(NC(=O)C(=O)NCCC2=CCCCC2)c(OC)c1,-13,7.7%,23,4,1.4,-2.9
Cn1cccc1/C=N/NC(=O)c1ccc(OC(F)(F)C(F)F)cc1,-23,1.8%,-7,-15,-0.6,1.0
Cc1cc(C)n(CC(=O)N2c3ccccc3Sc3ccc(C(F)(F)F)cc32)n1,-2,3.7%,9,-4,0.3,1.4
N#C/C(=C\C=C\c1ccccc1[N+](=O)[O-])C(=O)NC1CCCCC1,6,-0.2%,28,-16,0.5,-0.7
CC(C)(C)OC(=O)[C@H](Cc1ccccc1)NC(=O)c1nc[nH]c1C(=O)N[C@@H](Cc1ccccc1)C(=O)OC(C)(C)C,-9,3.1%,11,-9,1.9,-3.3
COc1cc2[nH]c(=O)c(C(=O)NCc3ccc(C)cc3)c(O)c2cc1OC,-7,0.0%,1,-1,0.0,-3.9
COc1ccc2c(C)cc3n[nH]c(=S)n3c2c1,-16,-1.4%,-3,-16,-0.6,-6.2
O=C(NCCN=C1NS(=O)(=O)c2ccccc21)c1ccc(S(=O)(=O)N2CCOCC2)cc1,-22,-1.1%,11,-16,0.8,-0.6
Cc1cccc(C)c1NC(=O)COC(=O)/C=C/c1ccc(S(=O)(=O)N2CCOCC2)cc1,0,5.3%,14,0,0.6,-0.8
CC(C)(C)n1nc2c(c1NC(=O)c1cc([N+](=O)[O-])ccc1Cl)CS(=O)(=O)C2,-6,-0.6%,9,-4,0.9,-0.5
Cc1cccc(OCC(=O)N(Cc2ccc(C)o2)C2CCS(=O)(=O)C2)c1 (configuration not stated),-7,0.9%,3,0,-0.2,1.9
CCN(CC)c1ccc(S(=O)(=O)N2CCOCC2)cc1NC(=O)CSc1nncs1,-7,-0.1%,81,-2,-0.7,-2.9
CCCNC(=O)c1onc(CSc2ccc(F)cc2)c1C(=O)NC(C)C,-10,0.0%,21,6,0.4,-1.9
O=C(COC(=O)C1CC(=O)N(Cc2ccccc2)C1)Nc1ccc2c(c1)OCO2 (configuration not stated),-1,-1.0%,-3,2,0.4,-2.3
COc1ccc(-n2c(-c3cc(-c4ccccc4)sc3N)n[nH]c2=S)cc1,-5,0.0%,-14,3,1.1,8.0
Cc1ccc(C2(C)NC(=O)N(CC(=O)Nc3ccccc3N3CCCC3)C2=O)cc1 (configuration not stated),-2,2.7%,21,-5,3.6,-3.3
CC1CC(C)CN(CCCNC(=O)C2CCN(c3nnc(-n4cccc4)s3)CC2)C1 (configuration not stated),-17,-0.8%,6,-5,-0.5,-4.2
Cc1ccc(S(=O)(=O)N(C)C)cc1NC(=S)Nc1ccc2[nH]c(=O)[nH]c2c1,-24,1.6%,13,23,0.3,-1.8
Cc1nn(CC(=O)NCCc2ccccc2)c(=O)c2nn(-c3ccccc3)c(C)c12,.,-1.6%,1,.,-0.5,.
Cc1c(Cl)cccc1NC(=O)CNC(=O)CCS(=O)(=O)c1ccc(F)cc1,-15,0.9%,3,4,-1.6,0.7
CN1CCN(c2ccc(C(=O)c3ccc(Br)cc3)cc2[N+](=O)[O-])CC1,-15,1.8%,1,-21,1.4,-0.9
O=C(O)c1cccc(S(=O)(=O)N(Cc2ccccc2)c2ccccc2Cl)c1,-9,-0.1%,25,4,0.2,4.1
COc1ccc(N2CCN(C(=O)c3cn(C4CCCCC4)c(=O)c4c3c3ccccc3n4C)CC2)cc1,.,5.1%,7,.,3.6,.
O=C(CCn1nc(-c2ccc(Cl)cc2)ccc1=O)N1CCOCC1,-12,0.1%,15,0,1.5,-1.9
CC(=O)N1CCc2c(sc(NC(=O)C3CC3)c2-c2nc3ccccc3s2)C1,-6,12%,17,?,0.3,-3.4
CCC/C=C/c1ccc(CN2C(C(C)C)C(=O)N(Cc3cn(Cc4ccco4)nn3)CCS2(=O)=O)cc1 (configuration not stated),.,6.1%,.,-20,.,0.3

# In another format: entries from further up.
mol	D2 PAM	PINK1 expr mod	TRPML1 blocker	Six1-Eya2 blk	TRPML1 agonist	D2 agonist
CC1CC(C)CN(CCCNC(=O)C2CCN(c3nnc(-n4cccc4)s3)CC2)C1 (configuration not stated)	-17	-0.8%	6	-5	-0.5	-4.2
Cc1ccc(S(=O)(=O)N(C)C)cc1NC(=S)Nc1ccc2[nH]c(=O)[nH]c2c1	-24	1.6%	13	23	0.3	-1.8
